# FGF22 binding = shifts melting point of recombinant human FGF22; Q9HCT0; recombinant FGF22 thermal shift, SYPRO orange fluorescence; percent of sucrose octasulfate shift, DMSO zero; calls only at 9.99 µM; 340,000 compounds, 1.5% hits; AID 651658;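 active = melting point raised past a set limit in the mean and every replicate; three in four hits are not shown here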
# Target sequence (Q9HCT0 whole entry, looked up): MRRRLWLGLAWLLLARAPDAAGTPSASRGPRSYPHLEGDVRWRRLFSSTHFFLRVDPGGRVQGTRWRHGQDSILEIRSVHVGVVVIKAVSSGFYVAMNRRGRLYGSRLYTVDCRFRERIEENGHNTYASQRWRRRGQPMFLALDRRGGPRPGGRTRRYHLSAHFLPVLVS
# Ecoli growth = inhibitors of Escherichia coli growth. OD600 absorbance (no concentration beside the values). AID 1053175. 330,000 compounds, 0.21% hits. OD600, 23 h; active compounds read low;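 active = OD600 absorbance below the run mean of sample wells minus 3.6 SD, in any replicate, cut at about 0.56 in these data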;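 note: stock transfer was 300 nL into about 60 µL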
# HNF4A DNA FP = change in binding of human HNF4 alpha to DNA | 360,000 compounds, 0.3% hits | AID 1224865 | HNF4a-FITC DNA binding, fluorescence polarization, 1 h | activity change, % at 10 µM; in the data active = activity change above about 30%, passing the limit was not always enough;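 note: controls were the assay level and a saturating level of protein; the project sought stronger binding though the title names inhibitors; some compounds called inactive have numbers as strong as hits; positive values seem to mean higher polarization but the record does not say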
# Target sequence (P41235 whole entry, looked up): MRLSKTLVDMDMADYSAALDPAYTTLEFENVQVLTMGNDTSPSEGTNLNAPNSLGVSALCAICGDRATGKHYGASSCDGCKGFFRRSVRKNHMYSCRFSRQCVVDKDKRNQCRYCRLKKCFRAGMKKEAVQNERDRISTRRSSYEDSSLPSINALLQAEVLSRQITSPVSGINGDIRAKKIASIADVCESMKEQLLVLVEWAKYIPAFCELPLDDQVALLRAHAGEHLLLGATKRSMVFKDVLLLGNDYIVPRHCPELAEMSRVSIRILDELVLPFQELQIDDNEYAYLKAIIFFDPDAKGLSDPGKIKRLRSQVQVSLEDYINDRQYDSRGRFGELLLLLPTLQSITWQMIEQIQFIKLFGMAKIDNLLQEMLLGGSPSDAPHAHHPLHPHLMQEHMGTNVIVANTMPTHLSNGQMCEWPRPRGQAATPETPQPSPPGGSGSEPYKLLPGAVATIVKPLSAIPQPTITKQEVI
# Beta2AR agonist = activates human beta-2 adrenergic receptor causing internalization; Am2.2-beta2AR cells, FAP receptor internalization, flow cytometry; reference of the scale not given here; 340,000 compounds, 0.43% hits; response, % (test concentration not listed);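 active = response above a set limit, near 3 SD of response in nonfluorescent compounds, cut at about 42% in these data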;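 note: stock transfer was 100 nL into about 11 µL; a reference agonist was the positive control; negative values mostly stem from fluorescent compounds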
# UCH37 inh = inhibitors of human deubiquitinating enzyme UCH37 | 330,000 compounds, 0.33% hits | purified proteasome/UCH37, Ub-AMC cleavage fluorescence | inhibition, % (concentration not given with the values) | AID 588478 | Q9Y5K5;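 active = mean of two replicates above 20%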;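 note: 0% = compound-free wells with enzyme and 100% = wells lacking proteasome; stock transfer was 100 nL into about 20 µL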
# Target sequence (Q9Y5K5 whole entry, looked up): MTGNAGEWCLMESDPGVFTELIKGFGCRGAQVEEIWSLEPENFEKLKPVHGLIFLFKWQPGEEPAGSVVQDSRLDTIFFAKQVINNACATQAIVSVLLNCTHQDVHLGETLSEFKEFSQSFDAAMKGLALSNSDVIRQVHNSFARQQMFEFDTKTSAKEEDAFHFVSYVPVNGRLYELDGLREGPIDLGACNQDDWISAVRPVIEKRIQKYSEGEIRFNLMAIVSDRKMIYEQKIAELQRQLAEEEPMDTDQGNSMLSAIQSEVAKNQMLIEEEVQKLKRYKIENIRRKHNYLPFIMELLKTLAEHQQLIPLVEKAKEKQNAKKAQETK
#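 Assay system: Proteasome-bound UCH37. Buffer or medium: pH 7.4 Tris-HCl (50 mM) with ovalbumin, ATP-MgCl2, DTT. Incubation: 30 min preincubation with enzyme, 25 min cleavage at room temperature. Measured by: fluorescence, ex 355 nm, em 460 nm. Read-out basis: percent inhibition. Control set: wells without proteasome as full block, compound-free enzyme plus substrate as uninhibited.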
# ALR H2O2 inh = inhibitors of human sulfhydryl oxidase ALR; P55789; purified ALR, DTT oxidation, H2O2 HRP-luminol luminescence; inhibition, % (no concentration beside the values); 290,000 compounds, 3.8% hits; AID 485317;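 active = mean and each replicate at 75% or more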;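 note: stock transfer was 7.5 nL into about 7.5 µL; 0% = neutral wells and 100% = wells with inactivated enzyme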
# rRNA inh HTS = inhibitors of bacterial rRNA selective over humanized ribosomes | 350,000 compounds, 1.6% hits | GFP signal change (wild-type ribosome), % (no concentration beside the values) | E. coli WT GFP vs humanized-ribosome RFP mutants, fluorescence, 24 h; active compounds read low; DMSO median 0, no signal -100 | AID 720706;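 active = significant combined selectivity score with lowered wild-type GFP, culture density cut under 30%, mutant RFP and density less affected; inactive = any of these conditions unmet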; note: one replicate is shown; some compounds called inactive have numbers as strong as hits
# rRNA inh HTS OD600 = also measured in rRNA inh HTS; calls as there; OD600 change, %; measured here: OD600 growth;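 optical density of the mix in the first replicate; 0 = DMSO median and -100 = no signal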
# rRNA inh HTS RFP = recorded beside rRNA inh HTS, whose call it bears; RFP signal change, %; measured here: RFP humanized mutant strains;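 first replicate; 0 = DMSO median and -100 = no signal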
# Numbers without * were called inactive; i = inactive; nt = no result given; & = joins results of further samples. The list is partial, so the mix of outcomes need not match the whole.
SMILES,FGF22 binding,Ecoli growth,HNF4A DNA FP,Beta2AR agonist,UCH37 inh,ALR H2O2 inh,rRNA inh HTS,rRNA inh HTS OD600,rRNA inh HTS RFP
CC1(C)CC(=O)C(C=NCC2CCNCC2)=C(O)C1,nt,0.76,-0.6,1,3.8,nt,nt,nt,nt
COC(=O)CSc1nc(-c2ccccc2)c2c(c1C#N)CCCC2,nt,0.65,-5.5,0,0.9,2,nt,nt,nt
CCN(CC)CCOC(=O)c1ccc(N/C=C(/C#N)c2nc(-c3cc4ccccc4oc3=O)cs2)cc1,i,0.67,161,15,3.5,-9,3,11,2.9
O=C(Nc1cccc(C(F)(F)F)c1)Nc1ccc2nc([C@@H]3O[C@H](CO)[C@@H](O)[C@H](O)[C@H]3O)[nH]c2c1,i,nt,1.0,nt,nt,nt,8,2,-2.1
Cc1cccc(/C=C2\Sc3ccc(C(=O)N4CCCCC4)cc3N(C)C2=O)c1,i,0.71,-1.1,-2,-7.8,-4,2,-25,1.2
CC(C)(C)NC(=O)c1cnn(-c2ccccc2)c1NC(=O)c1ccccc1,nt,0.69,1.3,0,-0.3,-3,-40,-38,-11
C/[N+]([O-])=C\C1C(=O)CC(C)(C)CC1=O,nt,0.66,-1.1,-9,3.3,-3,25,19,3.6
O=c1nc(NC2CCCC2)ccn1Cc1cccc(Br)c1,nt,0.69,-3.0,-12,-0.6,-3,nt,nt,nt
Nc1ncnc2c1ncn2[C@@H]1O[C@H](CNCC#Cc2ccccc2)[C@@H](O)[C@H]1O,nt,0.71,0.9,12,5.3,nt,nt,nt,nt
CCCCn1c(SCC(=O)Nc2cc(C)on2)nc2cc(S(N)(=O)=O)ccc21,i,0.69,-0.1,7,0.5,3,7,7,-2.0
COc1cc(CN2CCNC(=O)C2CC(=O)N(Cc2nccn2C)C(C)C)cc(OC)c1 (stereo unspecified),i,0.72,-3.1,0,-0.1,-3,11,5,0.4
O=C(Nc1ccc2[nH]ccc2c1)c1ccc(F)cc1,i,0.62,1.4,6,0.0,-15,-1,2,3.8
Cn1cccc1C(=O)OCC(=O)NCc1ccc2c(c1)OCO2,i,nt,-4.8,3,nt,-4,10,14,3.3
O=C(OCc1nnc(-c2ccccc2)o1)C1CC(=O)N(Cc2ccco2)C1 (stereo unspecified),i,0.65,-0.5,-4,-1.9,19,18,16,1.1
Cc1nc(SCC(=O)Nc2c(C)n(C)n(-c3ccccc3)c2=O)[nH]c(=O)c1C,nt,0.67,0.1,-5,5.3,-3,nt,nt,nt
O=C(O)c1ccc(-n2nc(C(F)(F)F)c3c2CCCC3)cc1,nt,0.68&0.7,-1.2&-1.4,0&8,1.6&3.4,-5&-2,-22,-29,-2.5
C=C1C(C(=O)N2CCOCC2)C1C(=O)N1CCOCC1 (stereo unspecified),i,0.71,-0.9,-5,5.3,-1,1,4,4.8
CCOc1ccc2nc(NCCNC(=O)C(C)(C)C)c(C)cc2c1,i,0.71,-5.8,-2,-151,nt,-1,-8,0.3
COc1cccc(NC(=O)COC(=O)/C=C/c2ccc(Cl)cc2Cl)c1,i,0.69,1.7,5,-1.1,-1,-6,1,-3.5
Cc1ccc(SCCC(=O)N2CCC(C(N)=O)CC2)cc1,nt,0.67,1.5,0,0.7,3,nt,nt,nt
Cc1ccc(C)c(C(=O)COC(=O)Cn2c(C)csc2=O)c1,i,0.71,-2.5,-7,-0.4,-2,7,6,3.1
NC(=O)[C@H](Cc1cc2ccccc2s1)NC(=O)[C@@H]1CC2(CC(c3cccc(NC(=O)[C@@H]4CCC(=O)N4)c3)=NO2)CN1C(=O)/C=C/Sc1ccccc1 (stereo partly specified),i,nt,3.5,-1,3.1,-6,3,3,5.2
COc1cccc(COC(=O)c2sc3nc4n(c(=O)c3c2C)CCC4)c1OC,i,0.69,6.1,-19,-7.8,-6,-15,-16,2.7
CCOc1ccccc1C1C(C#N)=C(N)Oc2cc(C)n(C)c(=O)c21 (stereo unspecified),i,0.75,0.2,1,-2.5,5,8,-8,-6.9
Cc1ccc(/C(CSc2nccn2-c2ncc(C(F)(F)F)cc2Cl)=N\O)cc1,nt,nt,-1.0,-11,nt,51,nt,nt,nt
CC(C)C(=O)Nc1ccc(NC(=O)c2cccnc2)cn1,nt,0.69,-0.7,-3,3.6,6,nt,nt,nt
COc1ccccc1C(=O)Nc1ccccn1,nt,0.69,1.2,-1,-0.1,8,nt,nt,nt
Cc1cc(/C=N/NC(=O)c2cccc(N(C)C)c2)c(C)n1-c1cc(C(=O)O)cc(C(=O)O)c1,i,nt,-31,-7,nt,nt,16,17,1.7
CCN(CC)c1ccc(/C=N\N2CCN(Cc3ccc(C)cc3)CC2)cc1,i,nt,-2.4,6,nt,98*,-16,-17,-3.1
CCOc1ccc2nc(NCCNC(=O)C3CC3)c(C)cc2c1,nt,0.73,-3.4,-4,-175,-2,-7,-3,-1.3
Cc1ccccc1CS(=O)(=O)Cc1ccc(C(=O)NCCCN2CCOCC2)o1,nt,0.73,-2.7,6,-2.7,-9,nt,nt,nt
CCOc1ccc(C(=O)Nc2ccc3c(c2)OCCO3)cc1OC,i,0.66,-2.3,-3,5.0,0,-11,4,-1.4
CC(Oc1ccc2oc3ccccc3c2c1)C(=O)NC12CC3CC(CC(C3)C1)C2 (stereo unspecified),i,0.7,0.0,-7,3.4,8,-1,-41,-7.3
CS(=O)(=O)N1CCC(C(=O)Nc2ccc(F)cc2)CC1,i,0.66,-4.5,-1,5.2,-5,8,5,1.8
Cc1ccc(-n2c(SCC(=O)NC3CCCCC3)nc3c(c2=O)SCC3)cc1,i,0.73,1.8,-19,8.8,15,1,4,-2.5
CN(C)C(=O)CSc1nnc(-c2cnccn2)n1C,nt,0.68,5.4,-2,-0.1,-22,nt,nt,nt
NCCCSC1=NCCCN1,nt,0.71,1.0,8,-0.8,-11,nt,nt,nt
O=C(Nc1cc2c(oc1=O)CCCC2=O)c1ccccc1,nt,0.67,-1.2,-13,3.6,-2,nt,nt,nt
CCN1CCN(C(=O)Cn2nc(C)n3c(cc4c(OC)cccc43)c2=O)CC1,i,0.73,5.1,3,-227,-4,2,16,-2.5
Cc1c(C#N)c(N)nc2c3c(sc12)NC(=O)CC3c1ccccc1 (stereo unspecified),nt,0.68,-2.1,7,-47,-13,nt,nt,nt
CCCCc1ccc(NC(=S)NN2CCOCC2)cc1,i,0.69,-2.5,3,3.6,nt,-9,-12,12
CC1CCCN(c2ccc(C(=O)NCC3CCCO3)cn2)C1 (stereo unspecified),i,0.69,-0.1,0,5.3,-3,4,0,-3.3
CCN1CCN(S(=O)(=O)c2ccc(S(=O)(=O)NC3CC3)cc2)CC1,i,nt,1.2,0,nt,nt,5,5,-0.4
COc1ccc(N2CCN(C(=O)c3cc4c(s3)-c3ccccc3OC4)CC2)cc1,i,0.76,1.9,-6,-1.0,-11,3,-5,7.5
Cc1ccc(NC(=O)Nc2ccon2)cc1Cl,i,0.66,-4.0,-14,-1.7,-10,-34*,-26*,-7.6*
CCOC(=O)c1c[nH]c2c(C)ccc(Cl)c2c1=O,i,0.67,-1.3,-11,5.8,-23,11,8,1.8
Cn1nc(C(=O)NNC(=O)Cc2ccc(S(=O)(=O)N3CCOCC3)s2)c2ccccc2c1=O,i,nt,4.0,0,nt,nt,10,4,3.6
O=S(=O)(Nc1c(F)cccc1F)c1ccc(Cl)nc1,i,0.62,5.6,-1,-0.7,-5,17,8,0.1
CCc1c(C(=O)NNC(=S)NCCc2ccccc2)csc1C,nt,0.69,0.2,1,2.9,0,nt,nt,nt
CCOC(=O)c1c(C)[nH]c(C(=O)COC(=O)C2=NNC(=O)CC2)c1C,i,0.74,1.7,-9,1.1,9,13,5,1.1
CCOc1ccccc1C(=O)NCC(=O)N1CCN(Cc2ccc3c(c2)OCO3)CC1,nt,0.7,2.8,-1,1.4,-2,nt,nt,nt
O=c1c2ccccc2nnn1CSc1nnc(-c2cccc(S(=O)(=O)N3CCCCC3)c2)o1,nt,0.74,3.3,-4,2.7,-16,nt,nt,nt
Cn1c(-c2cnn(-c3ccccc3)c2N)n[nH]c1=S,i,0.71,1.0,4,5.3,0,3,1,-3.3
Cc1noc(/C=C/N(C)C)c1S(=O)(=O)N1CCN(c2ccccc2)CC1,i,0.76,-4.9,7,7.0,16,2,5,0.4
O=C(CCc1nc(-c2ccccc2F)no1)NC1CCN(Cc2ccccc2)CC1,nt,0.69,-1.2,-4,1.1,-2,nt,nt,nt
Cc1ccc(SCC(=O)NC(=O)c2ccc(S(=O)(=O)N(C)C)cc2)cc1C,nt,0.67,-0.9,2,1.9,nt,nt,nt,nt
O=C(c1cccc(S(=O)(=O)Nc2ccccc2F)c1)N1CCN(c2ccccc2F)CC1,nt,0.63,0.5,2,-0.2,13,-28,-40,-3.0
OC(c1ccccc1)c1nc(-c2cccs2)cs1 (stereo unspecified),i,nt,2.9,nt,nt,nt,1,-2,-3.5
COc1ccc(OC)c(NC(=O)COC(=O)CCC2CCCC2)c1,i,0.65,-2.7,-3,2.4,-1,-4,-1,0.1
Cc1cc(C)c(C)c(OC(=O)c2sc(Cl)nc2C)c1,nt,0.71,1.8,92*,3.8,5,nt,nt,nt

# One compound at a time (already shown). Values in the order: FGF22 binding	Ecoli growth	HNF4A DNA FP	Beta2AR agonist	UCH37 inh	ALR H2O2 inh	rRNA inh HTS	rRNA inh HTS OD600	rRNA inh HTS RFP
# Entry for `Nc1ncnc2c1ncn2[C@@H]1O[C@H](CNCC#Cc2ccccc2)[C@@H](O)[C@H]1O` = nt	0.71	0.9	12	5.3	nt	nt	nt	nt
# Entry for `COc1cccc(COC(=O)c2sc3nc4n(c(=O)c3c2C)CCC4)c1OC` = i	0.69	6.1	-19	-7.8	-6	-15	-16	2.7
# Entry for `COC(=O)CSc1nc(-c2ccccc2)c2c(c1C#N)CCCC2` = nt	0.65	-5.5	0	0.9	2	nt	nt	nt
# Entry for `NC(=O)[C@H](Cc1cc2ccccc2s1)NC(=O)[C@@H]1CC2(CC(c3cccc(NC(=O)[C@@H]4CCC(=O)N4)c3)=NO2)CN1C(=O)/C=C/Sc1ccccc1` (stereo partly specified) = i	nt	3.5	-1	3.1	-6	3	3	5.2
# Entry for `Cc1ccc(/C(CSc2nccn2-c2ncc(C(F)(F)F)cc2Cl)=N\O)cc1` = nt	nt	-1.0	-11	nt	51	nt	nt	nt

# Going on with the list:
SMILES,FGF22 binding,Ecoli growth,HNF4A DNA FP,Beta2AR agonist,UCH37 inh,ALR H2O2 inh,rRNA inh HTS,rRNA inh HTS OD600,rRNA inh HTS RFP
COc1ccc(NC2CC(=O)N(c3cccc(C)c3)C2=O)cc1 (stereo unspecified),nt,0.71,-3.3,5,3.1,-6,nt,nt,nt
Cc1cc(C=C2C(=O)c3ccccc3C2=O)c(C)n1C,nt,0.68,3.8,-5,2.1,4,nt,nt,nt
OCCC#Cc1ccc(N2C(c3ccsc3)=Cc3ccc(F)cc3C2c2c[nH]c3ccccc23)cc1 (stereo unspecified),i,nt,8.3,nt,nt,nt,-61,-77,-20
Cc1ccc(S(=O)(=O)N2CCN(C(=O)CCN3C(=O)c4ccccc4C3=O)CC2)cc1C,nt,0.58,3.7,0,1.5,0,2,-8,-3.4
COc1ccc(C(=O)NCC(=O)OCc2ccc(F)cc2Cl)cc1OC,i,0.73,-2.1,5,2.5,-5,-9,-8,-2.0
CCOc1ccc(C(C)NC(=O)c2ccccc2OCc2c(C)noc2C)cc1OCC (stereo unspecified),i,0.67,0.0,1,-0.1,-1,-7,-5,-4.4
